Compound activity: PubChem BioAssay, Broad Institute
NOMO-1 viab – STK33 inhibitor candidate reducing NOMO-1 cell viability; NOMO-1 AML viability, CellTiter-Glo luminescence, 72 h; inhibition, % (test concentration not listed); 37,000 compounds, 7.5% hits;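 active means most replicates above 80%; inconclusive means exactly half above 80%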;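 further: wells of about 30 µL received 25 nL stock; 0% = median of vehicle wells and 100% = reference inhibitor level; the first replicate is given; inactives centre near 10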
Numbers without * were called inactive; u = inconclusive.

SMILES	NOMO-1 viab
CNC[C@@H]1Oc2ccc(NS(=O)(=O)c3cccs3)cc2CC(=O)N([C@H](C)CO)C[C@@H]1C	21
COc1ccc(C2Oc3c(OC)cc(CCCO)cc3C2COC2OC(CO)C(O)C(O)C2O)cc1OC (stereo unspecified)	42
O=C(CSc1nnc(-c2cccs2)n1-c1ccccc1)Nc1ccccc1Cl	-2
Cc1noc(C)c1S(=O)(=O)Nc1ccc2c(c1)CC(=O)N([C@@H](C)CO)C[C@@H](C)[C@@H](CN(C)C(=O)NC(C)C)O2	23
O=C(COc1ccccc1[N+](=O)[O-])Nc1ccc(Br)cc1C(=O)O	10
Cc1cc(C)nc(SCC(=O)N2c3ccccc3Sc3ccccc32)n1	-1
C[C@@H]1CN([C@@H](C)CO)C(=O)c2cc(NS(=O)(=O)c3ccc(F)cc3)ccc2O[C@H]1CN(C)C	8
C[C@@H]1CCCCO[C@@H](CN(C)C(=O)c2ccccc2)[C@@H](C)CN([C@H](C)CO)C(=O)c2cc(NC(=O)CCCN(C)C)ccc2O1	19
Cn1c(-c2nonc2NC(=O)c2ccccc2Br)nc2ccccc21	29
O=C(CSc1nnc(-c2ccncc2)n1-c1ccc(Cl)cc1)Nc1ccc2cn[nH]c2c1	-12
C[C@@H]1CN([C@H](C)CO)C(=O)c2cccc(NS(=O)(=O)c3ccccc3)c2O[C@@H]1CN(C)C(=O)Nc1ccc(C(F)(F)F)cc1	23
C[C@H](CO)N1C[C@H](C)[C@H](CN(C)Cc2ccc3c(c2)OCO3)Oc2ccc(NC(=O)Nc3ccc(C(F)(F)F)cc3)cc2CC1=O	124*
COc1ccc(NC(=O)C(=O)NCC(=O)Nc2ccc(C)c(Cl)c2)cc1	21
Cc1ccc(OCc2n[nH]c(=S)n2-c2ccccc2)cc1C	-4
C[C@@H]1CCCCO[C@@H](CN(C)S(=O)(=O)c2cccs2)[C@@H](C)CN([C@H](C)CO)C(=O)c2cc(NC(=O)Nc3cccc4ccccc34)ccc2O1	-5
CO[C@H]1O[C@H](COC(=O)c2ccccc2)[C@@H](O)[C@H](O)[C@H]1OC(=O)c1ccccc1	-12
COC(=O)c1ccc(NC(=O)CCn2nc(-c3ccccc3)c3ccccc3c2=O)cc1	14
CC(=O)OCOC(=O)CN(CC(=O)OCOC(C)=O)c1ccccc1OCCOc1ccccc1N(CC(=O)OCOC(C)=O)CC(=O)OCOC(C)=O	113*
Cc1ccc(NC(=O)CSc2nnc(-c3ccc(C)c(Cl)c3)n2C)cc1Cl	47
C[C@H]1CN([C@@H](C)CO)C(=O)Cc2cc(NC(=O)Nc3ccccc3)ccc2O[C@H]1CN(C)Cc1ccc(C(F)(F)F)cc1	127*
COc1ccc(S(=O)(=O)N(C)C[C@@H]2Oc3ccc(NS(=O)(=O)c4ccc(C)cc4)cc3C(=O)N([C@@H](C)CO)C[C@H]2C)cc1	10
Cc1cc(OCC(=O)Nc2ccccc2N2CCN(C)CC2)cc(C)c1Cl	9
Cc1ccc(S(=O)(=O)N(C)C[C@@H]2Oc3ccc(N(C)C)cc3CC(=O)N([C@H](C)CO)C[C@@H]2C)cc1	0
C[C@H](CO)N1C[C@H](C)[C@H](CN(C)Cc2ccc(-c3ccccc3)cc2)Oc2ccc(NC(=O)C3CCCCC3)cc2CC1=O	69
COc1cc(NC(=O)COc2ccc(Br)cc2C)c(OC)cc1Cl	-19
Cc1ccc(S(=O)(=O)N(C)C[C@@H]2Oc3ccc(NC(=O)Nc4ccc(F)cc4)cc3C(=O)N([C@@H](C)CO)C[C@@H]2C)cc1	52
COc1ccc(CN(C)C[C@H]2Oc3ccc(NC(=O)Nc4c(C)noc4C)cc3C(=O)N([C@H](C)CO)C[C@H]2C)cc1	37
C[C@@H]1CN([C@H](C)CO)C(=O)c2cc(NC(=O)CCC(F)(F)F)ccc2O[C@H]1CN(C)S(=O)(=O)c1ccc(Cl)cc1	13
CCOC(=O)c1cc(NC(=O)CSc2nc3ccccc3c(=O)[nH]2)ccc1Cl	10
CSc1ccccc1NC(=O)CN(c1ccc(Br)cc1)S(C)(=O)=O	20
Cc1cc(C)nc(NS(=O)(=O)c2ccc(NC(=O)C3COc4ccccc4O3)cc2)n1 (stereo unspecified)	3
COc1ccc(-c2cc(=O)c3c(O)cc(O)cc3o2)cc1	-4
C[C@@H]1CN([C@@H](C)CO)C(=O)Cc2cc(NC(=O)CCCCCC(=O)Nc3ccccc3N)ccc2O[C@@H]1CN(C)C(=O)Nc1ccccc1	4
C[C@H](CO)N1C[C@H](C)[C@@H](CN(C)C(=O)Nc2ccccc2)Oc2ccc(NC(=O)CCCCCC(=O)Nc3ccccc3N)cc2C1=O	-12
C[C@@H]1CN([C@H](C)CO)C(=O)c2cc(NS(=O)(=O)c3ccc(F)cc3)ccc2O[C@@H]1CN(C)Cc1ccc(C(=O)O)cc1	-27
COc1ccc(CN(C)C[C@@H]2Oc3ccc(NC(=O)c4ccncc4)cc3C(=O)N([C@@H](C)CO)C[C@@H]2C)cc1	2
Cc1cc(C)c(NC(=O)CSc2nc3c(c(-c4ccco4)c2C#N)CCCC3)c(C)c1	u
C[C@@H]1CCCCO[C@@H](CN(C)Cc2ccccc2)[C@@H](C)CN([C@H](C)CO)C(=O)c2cc(NC(=O)C3CCCCC3)ccc2O1	15
C[C@H](CO)N1C[C@H](C)[C@H](CN(C)Cc2ccc(C(=O)Nc3ccccc3N)cc2)Oc2ccc(NC(=O)Cc3cn(C)c4ccccc34)cc2C1=O	102*
C[C@@H]1CCCCO[C@@H](CN(C)C(=O)C2CCCCC2)[C@@H](C)CN([C@H](C)CO)C(=O)c2cc(NC(=O)Nc3cccc4ccccc34)ccc2O1	33
C[C@H](CO)N1C[C@H](C)[C@@H](CN(C)C)Oc2ccc(NC(=O)Cn3cnnn3)cc2C1=O	33
COc1ccc(S(=O)(=O)Nc2cccc3c2O[C@@H](CN(C)C)[C@H](C)CN([C@@H](C)CO)C3=O)cc1	2
Cn1nc(C(C)(C)C)cc1N	-14
Cc1ccc(C(=O)CC2(O)C(=O)N(Cc3cccc4ccccc34)c3ccccc32)o1 (stereo unspecified)	36
C[C@@H]1CN([C@@H](C)CO)C(=O)c2cc(NS(=O)(=O)c3cccs3)ccc2O[C@H]1CN(C)Cc1ccc(-c2ccccc2)cc1	41
Cn1c(=O)c2c(nc(SCc3nn[nH]n3)n2Cc2ccccc2F)n(C)c1=O	10
O=C(Nc1ccccc1C(=O)NCc1cccnc1)c1cccc([N+](=O)[O-])c1	-19
COc1ccc(NC(=O)N(C)C[C@H]2Oc3ccc(NC(=O)CCN4CCOCC4)cc3C(=O)N([C@@H](C)CO)C[C@H]2C)cc1	16
COc1ccc(CN(C)C[C@@H]2Oc3ccc(NC(=O)Nc4c(C)noc4C)cc3CC(=O)N([C@H](C)CO)C[C@@H]2C)cc1	14
C[C@@H]1CCCCO[C@@H](CN(C)S(C)(=O)=O)[C@@H](C)CN([C@H](C)CO)C(=O)c2cc(NC(=O)c3ccncc3)ccc2O1	-4
O=C(N=S1CCN(C(=O)c2ccc(Cl)cc2)CC1)c1ccc(Cl)cc1	18
NC(=O)c1c(NC(=O)C2CC(=O)OC23CCCCC3)sc2c1CCCCC2 (stereo unspecified)	8
O=C(Nc1cc(C(F)(F)F)ccc1Br)c1ccccc1F	44
Cc1ccc(S(=O)(=O)N(C)CC(=O)Nc2ccc(C(F)(F)F)cc2)cc1	6
CC1=CC(C)(C)N(Cc2ccccc2)c2ccccc21	59
S=c1cc(-c2ccccc2)oc(-c2ccccc2)c1	61
Cc1noc(C)c1NC(=O)Nc1ccc2c(c1)C(=O)N([C@@H](C)CO)C[C@H](C)[C@H](CN(C)Cc1ccncc1)O2	-10
COc1ccc(NC(=O)CN(C)S(=O)(=O)c2ccc(Cl)cc2)c([N+](=O)[O-])c1	32
C[C@@H]1CN([C@H](C)CO)C(=O)c2cc(NC(=O)Cc3cn(C)c4ccccc34)ccc2O[C@@H]1CN(C)S(=O)(=O)c1ccc(F)cc1	2
Cc1noc(C)c1S(=O)(=O)Nc1ccc2c(c1)CC(=O)N([C@@H](C)CO)C[C@H](C)[C@H](CN(C)C(=O)NC1CCCCC1)O2	15

Following part.
SMILES	NOMO-1 viab
O=Nc1c(O)n(CC(=O)Nc2ccccc2)c2ccccc12	16
C[C@@H]1CN([C@H](C)CO)C(=O)Cc2cc(NS(=O)(=O)c3ccc(F)cc3)ccc2O[C@H]1CN(C)C(=O)NC1CCCCC1	6
COc1ccc(S(=O)(=O)N(C)CC(=O)Nc2cccc(C(C)=O)c2)cc1	13
CNC[C@@H]1Oc2ccc(NS(=O)(=O)c3ccc(F)cc3)cc2CC(=O)N([C@@H](C)CO)C[C@@H]1C	24
C[C@@H]1CN([C@H](C)CO)C(=O)c2cc(NC(=O)Nc3ccc(C(F)(F)F)cc3)ccc2O[C@H]1CN(C)C(=O)Nc1ccc(F)cc1	35
COC(=O)Nc1ccc(S(=O)(=O)N2CCCC(C(=O)Nc3ccc(N(C)C)cc3)C2)cc1 (stereo unspecified)	27
COc1cc(C[C@@H]2COC(c3ccc(O[C@@H]4O[C@H](CO)[C@@H](O)[C@H](O)[C@H]4O)c(OC)c3)[C@@H]2CO)ccc1O[C@@H]1O[C@H](CO)[C@@H](O)[C@H](O)[C@H]1O (stereo partly specified)	4
COc1c(-c2ccccc2)oc2c(OC)c(O)cc(O)c2c1=O	6
CCn1c(SCC(=O)Nc2cccc(Cl)c2Cl)nc2ccccc2c1=O	52
CC1(C)CC(=O)C=C(Sc2nc3cc(Cl)ccc3s2)C1	120*
C[C@@H]1CN([C@H](C)CO)C(=O)c2cccc(N(C)C)c2O[C@H]1CN(C)C	13
NC(=O)CN(c1cc(Cl)ccc1Cl)S(=O)(=O)c1ccccc1	13
Cc1ccc(S(=O)(=O)Nc2ccc3c(c2)CC(=O)N([C@@H](C)CO)C[C@H](C)[C@H](CN(C)CC2CCCCC2)O3)cc1	102*
CC(C)NC(=O)N(C)C[C@@H]1Oc2c(NC(=O)c3cnccn3)cccc2C(=O)N([C@@H](C)CO)C[C@H]1C	2
CNC[C@H]1OCCCC[C@@H](C)Oc2ccc(NS(=O)(=O)c3cn(C)cn3)cc2C(=O)N([C@H](C)CO)C[C@@H]1C	-17
CSc1ccccc1NC(=O)CSc1nnnn1-c1ccccc1F	3
Cc1ccc2nc(-c3cccnc3)cc(C(=O)Nc3scc(-c4ccc(C)c(C)c4)c3C(N)=O)c2c1	9
Cc1sc2ncnc(SCC(=O)Nc3ccc(F)cc3)c2c1C	6
O=C(CSc1nc2ccccc2c(=O)n1-c1ccc(Cl)cc1)Nc1ccc(Cl)c(Cl)c1	53
Cc1ccc(S(=O)(=O)N(C)C[C@@H]2Oc3ccc(NS(=O)(=O)c4ccc(F)cc4)cc3CC(=O)N([C@@H](C)CO)C[C@@H]2C)cc1	26
CC(=O)Nc1cccc(-c2nn3c(C)nnc3s2)c1	25
C[C@@H]1CN([C@H](C)CO)C(=O)c2cc(NC(=O)NC3CCCCC3)ccc2O[C@@H]1CN(C)S(=O)(=O)c1ccccc1	31
COc1cc(NC(=O)Cn2nc(C(F)(F)F)cc2C)cc([N+](=O)[O-])c1	9
O=S1(=O)CCC(N(S(=O)(=O)c2ccc(F)cc2)S(=O)(=O)c2ccc(Cl)cc2)C1 (stereo unspecified)	15
C[C@H]1CN([C@@H](C)CO)C(=O)c2cc(NC(=O)Nc3cccc4ccccc34)ccc2O[C@H]1CN(C)Cc1ccccc1	14
O=C(CCn1cccc(C(F)(F)F)c1=O)Nc1cccc(C(F)(F)F)c1	34
COc1ccc(S(=O)(=O)N2Cc3ccccc3CC2C(=O)Nc2ccc(C)cc2C)cc1OC (stereo unspecified)	16
COc1ccc(S(=O)(=O)Nc2ccc3c(c2)C(=O)N([C@H](C)CO)C[C@@H](C)[C@H](CN(C)C(=O)Nc2ccccc2)O3)cc1	9
COc1ccc([N+](=O)[O-])cc1NC(=O)C(C)N(c1ccccc1)S(C)(=O)=O (stereo unspecified)	3
C[C@@H]1CN([C@H](C)CO)C(=O)c2cccc(NC(=O)Nc3ccc4c(c3)OCO4)c2O[C@@H]1CN(C)Cc1ccc(C(=O)Nc2ccccc2N)cc1	140*
COc1ccc(NC(=O)Nc2ccc3c(c2)C(=O)N([C@@H](C)CO)C[C@@H](C)[C@@H](CN(C)Cc2ccc(-c4ccccc4)cc2)O3)cc1	116*
Cn1c(=O)c2c(nc(NCCN)n2Cc2ccc(Cl)cc2)n(C)c1=O	17
COc1ccc(S(=O)(=O)Nc2cccc3c2O[C@H](CN(C)Cc2ccc(C(=O)O)cc2)[C@H](C)CN([C@H](C)CO)C3=O)cc1	12
C[C@@H]1CCCCO[C@@H](CN(C)Cc2ccc3c(c2)OCO3)[C@@H](C)CN([C@H](C)CO)C(=O)c2cc(NS(=O)(=O)c3cccs3)ccc2O1	29
Cc1c(Cl)ccc2c(C(=O)Nc3ccc(S(=O)(=O)N4CCOCC4)cc3)cc(-c3cccnc3)nc12	42

Not all compounds are listed; the hit share may differ from the screen's.
